Screens from PubChem BioAssay.
TRPML1 blocker: blocks the human TRPML1 channel; Q9GZU1; TRPML1-inducible cells, Ca2+ dye fluorescence, FDSS; hits give low values; inhibition of EC80 agonist-evoked calcium signal; activity change, negative = inhibition, % (test concentration not listed); hit rate 0.02% among 390,000; AID 624415; in the data active means activity change below about -50%; inconclusive means about -30% to -50%; inactive means above about -30%;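 also: stimulus is agonist 54-4 at its EC80 concentration; % is scaled to controls: 0 for no effect and ±100 for the full control effect; compound concentration not given in the record; the text of the record puts the active cut at -80%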
Target sequence (Q9GZU1 whole entry, looked up): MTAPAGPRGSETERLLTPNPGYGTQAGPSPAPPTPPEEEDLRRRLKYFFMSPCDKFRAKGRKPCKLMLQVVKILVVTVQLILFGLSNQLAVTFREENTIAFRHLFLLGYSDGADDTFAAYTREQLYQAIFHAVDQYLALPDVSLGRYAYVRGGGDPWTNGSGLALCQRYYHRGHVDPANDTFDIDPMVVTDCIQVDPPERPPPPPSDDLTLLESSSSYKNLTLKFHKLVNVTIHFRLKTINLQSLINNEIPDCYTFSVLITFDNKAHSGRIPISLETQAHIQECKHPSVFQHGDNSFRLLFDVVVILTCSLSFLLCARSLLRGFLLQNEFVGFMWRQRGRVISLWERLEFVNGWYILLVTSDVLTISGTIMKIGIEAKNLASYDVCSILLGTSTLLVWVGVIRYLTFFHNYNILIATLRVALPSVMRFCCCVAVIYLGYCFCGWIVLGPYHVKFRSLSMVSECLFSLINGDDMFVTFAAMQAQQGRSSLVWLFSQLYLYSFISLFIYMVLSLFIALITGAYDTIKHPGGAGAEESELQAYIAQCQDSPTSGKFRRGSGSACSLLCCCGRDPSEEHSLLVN
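TRPML1-DL cells, Tet-induced overnight (~16 h, 37 °C) at 1,500 cells/well, were loaded with Ca8 no-wash dye plus quencher for 45-90 min at room temperature. Compounds were pinned during FDSS kinetic reading; agonist 54-4 at EC80 (4 uM final) then added.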
TRPML1 ag: agonists of human TRPML1 channel; TRPML1-expressing cells, Ca2+ dye fluorescence, FDSS; host cell line not named in the record; reference of the full effect not given here; activation, % (concentration not given with the values); hit rate 0.12% among 410,000; AID 624414; in the data active = activation above about 50%; inconclusive = about 30% to 50%; inactive = below about 30%; also: 0% is about no effect; the text of the record puts the active cut at 80%
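In this qHTS format, compounds were pin-transferred onto Ca8-dye-loaded TRPML1-DL cells induced with Tet overnight, and intracellular Ca2+ fluorescence was recorded kinetically for 110 s after a 10 s baseline. A subsequent 4uM final 54-4 (EC80) addition followed by a second 110 s read served as the antagonist phase.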
* marks the source's active call; other numbers are inactive results.

item | compound | TRPML1 blocker | TRPML1 ag
1 | COc1ccc2oc(-c3ccc(NC(=O)c4ccc(Cl)cc4Cl)cc3)nc2c1 | -0.5 | -0.8
2 | COc1ccc(Cc2c(C)nn(-c3nc(C)c(C(=O)Nc4cccc(C(C)=O)c4)s3)c2C)cc1 | 2.2 | -0.1
3 | CC(C)OCCCNC(=O)C(=O)Nc1c2c(nn1-c1ccccc1)CS(=O)(=O)C2 | 0.9 | -0.1
4 | CC(=O)N1c2ccc(S(=O)(=O)N3CCCCCC3)cc2CC1C(=O)NCc1cccc(C)c1 (stereo not given) | -2.9 | -0.6
5 | Cc1ccc(C)c(CN2C(=O)c3ccccc3Sc3ccc(C(=O)NCc4ccco4)cc32)c1 | -0.8 | -0.1
6 | O=C(Nc1nc(-c2ccccc2)ns1)c1ccc(Cl)cc1 | 3.2 | -0.4
7 | CCCn1ccc2c(OCC(=O)NCc3ccc(C)cc3)cccc2c1=O | 10.8 | -0.6
8 | Cn1cc(C(=O)N2CCN(c3cccc(C(F)(F)F)c3)CC2)c2c3ccccc3n(C)c2c1=O | 9.8 | 0.3
9 | COc1ccc(Nc2cc(C(=O)NCc3ccccc3OC)c3ccccc3n2)cc1 | 0.8 | 2.2
10 | Cc1ccsc1CN(C(=O)COc1ccc(Cl)cc1)C1CCS(=O)(=O)C1 (stereo not given) | 0.4 | 0.1
11 | COc1ccc(CNC(=O)c2cc(=O)[nH]c3ccc(S(=O)(=O)N4CCCC4)cc23)c(OC)c1 | -3.2 | -0.6
12 | Cc1ccc(C(=O)NCCc2ccc(Cl)cc2)cc1-n1c(C)nc2cccnc21 | 15.6 | 1.8
13 | O=C(NCc1ccccc1F)c1sc2ncccc2c1-n1cccc1 | 16.5 | 1.4
14 | CC(=O)N1CCc2c(sc3c2c(=O)n(-c2ccccc2)c(=O)n3CC(=O)c2ccccc2)C1 | -1.8 | -1.0
15 | COc1ccc(OC)c(NC(=O)CN(C)S(=O)(=O)c2ccc(C(=O)N3CCOCC3)s2)c1 | 2.2 | -0.6
16 | CCOc1ccc(-n2nc(CO)c(C(=O)NCc3ccccn3)n2)cc1 | 27.7 | 3.7
17 | COc1ccccc1CN1CCN(C2CCN(C(=O)NC(C)C)CC2)C(=O)C1=O | 16.4 | 0.2
18 | CCOc1cc(CNC(=O)c2ccc3c(c2)nc2n3CCCCC2)ccc1OC | -16.3 | 1.4
19 | O=C(O)C1=CC(c2ccc(Br)cc2)n2ncnc2N1 (stereo not given) | -8.9 | -0.5
20 | CN(C)c1ccc(-c2nc(-c3cccs3)c(-c3cccs3)[nH]2)cc1 | -10.2 | 1.6
21 | CCOC(=O)CC(NS(=O)(=O)c1cc(-c2cc(C)no2)ccc1C)c1ccc(C)cc1 (stereo not given) | 4.7 | 3.7
22 | Cc1cccn2c(=O)c(/C=C(\C#N)c3nc4ccccc4s3)c(Oc3ccc(Br)cc3)nc12 | 11.9 | 1.8
23 | Cc1ccc(CNC(=O)c2ccc3c(c2)nc2n3CCCC2)cc1 | -10.4 | -0.4
24 | O=C(NCC(c1ccc2c(c1)OCO2)N1CCOCC1)C(=O)Nc1cccc(Cl)c1 (stereo not given) | -11.1 | 1.2
25 | CCOC(=O)c1ccc(NC(=O)c2c(NCc3cccs3)sc3c2CCCC3)cc1 | 8.1 | -0.2
26 | CC(=O)c1c(C)n(-c2cccc(C)c2)c2ccc(OC(=O)COc3ccccc3)cc12 | 0.8 | 1.7
27 | COc1cccc(NC(CNS(=O)(=O)c2ccc(Cl)cc2)c2ccccc2)c1 (stereo not given) | -4.4 | 3.5
28 | COCCCn1c(=O)c2sccc2n2c(CCCC(=O)NC3CCC(C)CC3)nnc12 (stereo not given) | -2.6 | -0.5
29 | O=C(CSc1nncn2c1cc1occc12)Nc1ccccc1C(F)(F)F | 0.0 | 0.1
30 | CCC(=O)N1CCc2cc(S(=O)(=O)NCCC(=O)NC(C)c3ccccc3)ccc21 (stereo not given) | 4.7 | -0.6
31 | COC(=O)c1cc2sc(C)cc2n1Cc1ccc(F)cc1Cl | -4.9 | -0.4
32 | Cc1cccc(-c2nc(S(=O)(=O)c3ccccc3)c(N3CCN(c4ccccc4)CC3)o2)c1 | 15.0 | -0.1
33 | CCCCOc1ccc(S(=O)(=O)n2nc(C)c(S(=O)(=O)N3CCC(C)CC3)c2C)cc1 | -10.5 | -0.2
34 | Cc1ccc(CNC(=O)c2cc(-c3ccc(Cl)cc3)on2)cc1 | 5.1 | 1.0
35 | COc1cccc(-c2ccc3c(N)c(C(=O)Nc4cc(C(F)(F)F)ccc4OC)sc3n2)c1 | 8.6 | -0.3
36 | O=C(CS(=O)(=O)c1cccc2nsnc12)N1CCN(c2cccc(Cl)c2)CC1 | -7.5 | 1.4
37 | CC1CCCN(Cc2c(O)ccc3c(=O)c(Oc4ccc(C(C)(C)C)cc4)c(C(F)(F)F)oc23)C1 (stereo not given) | 12.3 | 2.1
38 | CCCCOc1ccc(CNC(=O)C2CCCN(c3nnc(-n4c(C)ccc4C)s3)C2)cc1 (stereo not given) | 48.6 | 0.7
39 | O=C(Nc1ccc(F)c(Cl)c1)N1CCN(C(=O)c2nsc3ccccc23)CC1 | 13.9 | 2.0
40 | COc1ccc(Cl)cc1NC(=O)Cn1ncc2c3ccccc3n(C)c2c1=O | -4.8 | -0.7
41 | Clc1cccc(-n2ncc3c(N4CCCCCC4)ncnc32)c1 | 25.2 | 0.4
42 | CN(C(=O)c1ccc2c(c1)N(Cc1cccc(Cl)c1)C(=O)c1ccccc1S2=O)C1CCCCC1 (stereo not given) | 6.4 | -0.3
43 | COc1ccc(NC(=O)CN(c2cccc(C)c2C)S(=O)(=O)c2ccccc2)cc1OC | -10.6 | -1.2
44 | Fc1ccc(Cc2cn3cc(-c4ccc(F)cc4)nc3s2)cc1 | 10.7 | 1.2
45 | CC1=C(C(=O)Nc2cccnc2)C(c2ccccc2)n2nc(-c3ccc(O)cc3)nc2N1 (stereo not given) | 11.4 | -0.3
46 | COc1ccc(CNC(=O)C2=C(C)C(=O)OC23CCCCC3)cc1OC | -2.9 | 0.0
47 | CC1=C(c2ccc(C)c(C)c2)S(=O)(=O)N=C1N1CCC(C(=O)Nc2cccc(F)c2)CC1 | -2.7 | 2.5
48 | COc1ccc(CNc2ncnc3c2c(-c2ccccc2)cn3-c2ccc(C)c(Cl)c2)cc1 | 12.4 | 3.7
49 | CC(=O)c1ccc(NC(=O)C2Cc3ccccc3N2C(=O)c2ccccc2)cc1 (stereo not given) | 4.0 | 0.4
50 | Cn1ccc2cc(S(=O)(=O)N3CCCN(C(=O)Nc4ccc(Br)cc4)CC3)ccc21 | -1.0 | 3.2
51 | Nc1c(C(=O)Nc2ccccc2)sc2nc3c(cc12)CN(Cc1ccccc1)CC3 | -10.5 | 1.8
52 | COc1ccc(CNC(=O)Cc2csc3nc(-c4ccc(F)cc4)cn23)cc1 | -7.1 | -0.1
53 | O=C(CN1C(=O)C2(SCC(=O)N2c2ccccc2)c2ccccc21)NCc1ccccc1 (stereo not given) | -3.1 | 0.7
54 | CCn1cc2nc(SCC(=O)Nc3ccc(C)cc3C)n(Cc3ccc(C)cc3)c(=O)c2n1 | -10.7 | 0.4
55 | CCOc1ccc(C(=O)c2cn(CC(=O)Nc3ccc(OC)cc3)c3cc4c(cc3c2=O)OCO4)cc1 | 5.7 | -0.3
56 | Cc1ccc(N(CC(O)Cn2c3ccccc3c3ccccc32)S(=O)(=O)c2ccc(F)cc2)cc1 (stereo not given) | 35.1 | 0.0
57 | O=C(NC1(C(F)(F)F)C(=O)Nc2c1c(=O)[nH]c(=O)n2CCc1ccccc1)c1ccc(Cl)cc1 (stereo not given) | 9.8 | 2.1
58 | CC1CCCCN1CCCNC(=O)Cn1ncc2c3ccccc3n(Cc3ccccc3F)c2c1=O (stereo not given) | -3.5 | -0.4
59 | Cc1ccc(N(C)C(=O)c2sc3nc4n(c(=O)c3c2C)CCCC4)cc1C | -12.2 | -0.6
60 | O=C(CCS(=O)(=O)c1nc(-c2cccs2)cc(C(F)(F)F)n1)Nc1ccc(Br)cc1 | -3.5 | -0.6

New compounds follow.
Values run as follows: TRPML1 blocker, TRPML1 ag
61. Cc1ccccc1OCC(=O)Nc1ccc(-c2nc3ncccc3o2)cc1
    -20.8, 0.4
62. Cc1ccccc1NC(=O)Cn1c(SCC(=O)Nc2ccc(F)cc2)nc2ccccc21
    -7.0, 0.5
63. COc1ccc(N2Cc3cccc(C(=O)Nc4ccc(C)c(C)c4)c3C2=O)cc1
    -19.7, -0.8
64. CCOC(=O)c1c(C)[nH]c(C)c1S(=O)(=O)N1CCC(C(=O)Nc2ccccn2)CC1
    -7.6, -0.8
65. COc1ccc(-n2c(=O)c3c4c(sc3n(Cc3cc(C)ccc3C)c2=O)CN(C(C)=O)CC4)c(OC)c1
    -13.2, 0.2
66. Cc1ccc(Cn2c(CN3CCC(C(=O)NCC(C)c4ccccc4)CC3)cc3ccccc32)cc1 (stereo not given)
    29.6, 1.9
67. O=C(CSc1cn(CC(=O)N2CCCCC2)c2ccccc12)NCc1ccc(F)cc1
    -0.9, 1.5
68. CCOCCSc1c(C)cnc2c1c(=O)n(C)c(=O)n2C
    2.5, -0.7
69. CCOc1ccc(-c2nnc(SCC(=O)NCc3ccc(C)cc3)nc2-c2ccc(OCC)cc2)cc1
    36.8, -0.1
70. CCc1ccc(NC(=O)c2sc(-n3nc(C)c(Cc4ccc(OC)cc4)c3C)nc2C)cc1
    -0.4, 1.8
71. Cc1ccc(Cl)cc1N1CCN(C(=O)COCc2cc(-c3ccc4c(c3)OCO4)on2)CC1
    28.7, 0.6
72. COc1ccc(-c2nc3scc(CCNS(=O)(=O)c4ccc(F)c(C(F)(F)F)c4)n3n2)cc1OC
    6.8, 3.7
73. CCCCc1ccc(NC(=O)C2(C)Cc3ccccc3C(=O)O2)cc1 (stereo not given)
    -4.9, 0.6
74. CCOCCn1ccc2c(OCC(=O)NCc3ccc(C)cc3)cccc2c1=O
    -0.9, 0.8
75. CC(=O)N1c2ccc(S(=O)(=O)NCc3ccc(Cl)cc3)cc2CC1C (stereo not given)
    6.0, 1.7
76. COc1ccc(-c2nnc(SCC(=O)Oc3cccc(C)c3C)o2)cc1
    -3.9, 2.6
77. CCCC(=O)N(c1ccc2oc(C)c(C(C)=O)c2c1)S(=O)(=O)c1ccc(C)cc1
    -11.3, 3.4
78. CC(C)(C)OC(=O)N1CCC(c2c(C(=O)NCc3ccco3)cnn2-c2ccc(F)cc2F)CC1
    0.1, 0.4
79. CCCCNC(=O)c1ccc2c(c1)N(CC)C(=O)c1ccccc1S2
    30.7, 0.3
80. CC1CCN(S(=O)(=O)c2ccc3nc(N4CCN(c5ccc(F)cc5)CC4)ccc3c2)CC1
    -8.9, 13.4
81. Cc1ccc(C2CC(=O)n3nc(-c4ccc(Cl)cc4)nc3S2)cc1 (stereo not given)
    -11.7, 0.2
82. CCOc1cccc(C(=O)N(Cc2ccc(C(C)C)cc2)C2CCS(=O)(=O)C2)c1 (stereo not given)
    -14.9, 1.6
83. COc1ccc(-c2c3c(=O)n(C)c(=O)n(C)c3c3n2-c2ccccc2NC3c2ccco2)cc1 (stereo not given)
    -15.8, 0.8
84. Cc1ccc(S(=O)(=O)c2nc(S(=O)(=O)c3ccccc3)sc2NCCCOC(C)C)cc1
    24.6, 3.5
85. CC1=C(c2ccc(C(C)C)cc2)S(=O)(=O)NC1=NCc1ccc(Cl)cc1
    -14.8, 0.1
86. COCCCn1c(=N)c(C(=O)NCc2cccnc2)cc2c(=O)n3cccc(C)c3nc21
    -18.9, 3.7
87. Cc1cccc(N2C(=O)CSC23C(=O)N(Cc2cccc(C(F)(F)F)c2)c2ccccc23)c1 (stereo not given)
    -15.3, 2.0
88. O=C(CC1C(=O)N(c2ccccc2)C(=O)N1CCc1cccs1)Nc1ccc(Cl)cc1 (stereo not given)
    -3.8, 1.4
89. COc1ccc(CCNC(=O)CCCCn2c(=O)c3ccccc3n(Cc3ccc(F)cc3Cl)c2=O)cc1OC
    17.3, -0.6
90. O=C(CCc1cn(Cc2ccccc2F)c2ccccc12)NCc1ccc(Cl)cc1
    16.3, 0.8
91. COc1cccc(/C=C/c2nc(C#N)c(NC3CCCCC3)o2)c1
    7.4, 0.6
92. COCCCNC(=O)NC(CCC(C)C)c1c(-n2cccc2)sc2c1CCN(C)C2 (stereo not given)
    50.7, 0.7
93. CCc1ccc(NC(=O)N(Cc2cn(CC)c3ccccc23)C2CCCCC2)cc1
    -9.5, -0.6
94. CC1CCC(Nc2nc3c(-c4ccc(Cl)cc4)nnn3c3ccccc23)CC1 (stereo not given)
    0.8, -0.2

Laid out differently: results already given
27. COc1cccc(NC(CNS(=O)(=O)c2ccc(Cl)cc2)c2ccccc2)c1 (stereo not given)
  TRPML1 blocker: -4.4	TRPML1 ag: 3.5

28. COCCCn1c(=O)c2sccc2n2c(CCCC(=O)NC3CCC(C)CC3)nnc12 (stereo not given)
  TRPML1 blocker: -2.6	TRPML1 ag: -0.5

29. O=C(CSc1nncn2c1cc1occc12)Nc1ccccc1C(F)(F)F
  TRPML1 blocker: 0.0	TRPML1 ag: 0.1

30. CCC(=O)N1CCc2cc(S(=O)(=O)NCCC(=O)NC(C)c3ccccc3)ccc21 (stereo not given)
  TRPML1 blocker: 4.7	TRPML1 ag: -0.6

A portion of the library; count on the stated rates, not on these rows.
